# Compound activity as filed in PubChem.
# A1 inh: inhibitors of the anti-apoptotic protein A1, read as caspase activation; MEF A1-2A-BIM cells, Caspase-Glo 3/7 luminescence, 3 h; percent of clofoctol response, vehicle zero; caspase activation, % (concentration not given with the values); 0.066% of 330,000 active;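 active means over half of replicate activation scores above 10%, or exactly half above 10 with the replicate mean above 10; inconclusive means replicate mean below 10 yet half the replicates above 10; inactive means over half of replicates below 10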;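 further: wells of about 30 µL received 50 nL stock; many hits fall short of the cut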
# T cruzi repl: T. cruzi replication inhibition | inhibition, % (concentration not given with the values) | AID 1885 | T. cruzi beta-gal in NIH3T3, luminescence, 90 h | 1.4% of 300,000 active;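 active means mean inhibition across valid replicates above about 55%, limit read from the data; inconclusive means mean below that limit but half or more replicates reach it; inactive means mean below it, under half of replicates reach it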;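 further: signal also drops with host cell toxicity which is not excluded here; 0% = plate median of DMSO wells and 100% = zero luminescence signal; higher percent means less beta-gal luminescence so fewer parasites; stock transfer was 50 nL into about 50 µL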
# Beta apoptosis: blocks beta cell apoptosis | INS-1E cytokine-induced death, ATP luminescence, 48 h; percent of positive-control rescue, neutral wells zero | protection from apoptosis, % (no concentration beside the values) | 0.8% of 300,000 active | AID 435005;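 active means all replicates at 75% or more, or half of them and the mean; inconclusive means half reach 75% but not the mean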;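 further: 0% = cytokine-treated negative control wells and 100% = positive control rescue; higher means more ATP so stronger rescue from cytokine killing; wells of about 40 µL received 100 nL stock; the first replicate is given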
# FGF22 binding: shifts melting point of recombinant human FGF22. calls only at 9.99 µM. recombinant FGF22 thermal shift, SYPRO orange fluorescence; percent of sucrose octasulfate shift, DMSO zero. 1.5% of 340,000 active;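 active means melting point raised past a set limit in the mean and every replicate; inconclusive means no clear call; three in four hits are not shown here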
# Target sequence (Q9HCT0 whole entry, looked up): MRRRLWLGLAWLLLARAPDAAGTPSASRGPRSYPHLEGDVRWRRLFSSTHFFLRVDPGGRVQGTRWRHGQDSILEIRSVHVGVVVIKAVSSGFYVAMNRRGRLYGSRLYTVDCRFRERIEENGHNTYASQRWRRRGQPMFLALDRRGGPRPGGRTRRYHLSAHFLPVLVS
# AF4-AF9 inh: inhibitors of human MLL-AF4/AF9 interaction | 0.47% of 350,000 active | inhibition, % at 10 µM | AlphaScreen, biotin-AF4 peptide binding to FLAG-AF9;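 active means every replicate reaching a set inhibition limit, whatever the replicate mean, cut at about 25% in these data; inconclusive means mean inhibition reaches that limit but some replicates miss it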;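 further: 0% = plate neutral control median and 100% = total signal loss; the record names both 10 and 1 µM as test concentration; the first replicate is given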
# Target sequence (P42568 whole entry, looked up): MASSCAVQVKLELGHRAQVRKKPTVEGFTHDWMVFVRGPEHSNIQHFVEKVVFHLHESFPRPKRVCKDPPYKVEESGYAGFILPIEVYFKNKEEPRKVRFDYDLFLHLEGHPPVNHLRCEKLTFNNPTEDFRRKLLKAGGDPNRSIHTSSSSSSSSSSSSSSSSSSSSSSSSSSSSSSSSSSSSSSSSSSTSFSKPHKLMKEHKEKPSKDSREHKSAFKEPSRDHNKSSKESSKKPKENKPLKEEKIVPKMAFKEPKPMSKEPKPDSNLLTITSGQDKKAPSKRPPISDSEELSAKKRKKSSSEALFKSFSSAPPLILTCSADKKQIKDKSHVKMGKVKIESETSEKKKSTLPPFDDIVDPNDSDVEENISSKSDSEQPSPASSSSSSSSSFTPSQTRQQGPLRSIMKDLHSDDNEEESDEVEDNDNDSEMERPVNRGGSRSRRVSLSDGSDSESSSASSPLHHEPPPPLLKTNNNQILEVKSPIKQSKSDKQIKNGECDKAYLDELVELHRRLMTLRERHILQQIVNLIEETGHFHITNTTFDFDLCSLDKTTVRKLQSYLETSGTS
# Ecoli rRNA inh: inhibits bacterial ribosomal RNA function over humanized ribosomes. E. coli WT GFP vs humanized-ribosome RFP mutants, fluorescence, 24 h; stronger effect = lower value; DMSO median 0, no signal -100. GFP signal change (wild-type ribosome), % (concentration not given with the values). 1.6% of 350,000 active. AID 720706;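 active means significant combined selectivity score with lowered wild-type GFP, culture density cut under 30%, mutant RFP and density less affected; inactive means any of these conditions unmet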; further: one replicate is shown; some compounds called inactive have numbers as strong as hits
# Ecoli growth: E. coli growth inhibition. AID 1053175. Escherichia coli growth, OD600, 23 h; stronger effect = lower value. OD600 absorbance (no concentration beside the values). 0.21% of 330,000 active;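 active means OD600 absorbance below the run mean of sample wells minus 3.6 SD, in any replicate, cut at about 0.56 in these data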;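 further: stock transfer was 300 nL into about 60 µL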
# UCH37 inh: inhibitors of human deubiquitinating enzyme UCH37 | AID 588478 | 0.33% of 330,000 active | purified proteasome/UCH37, Ub-AMC cleavage fluorescence | inhibition, % (no concentration beside the values) | Q9Y5K5;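 active means mean of two replicates above 20%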;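 further: 0% = compound-free wells with enzyme and 100% = wells lacking proteasome; stock transfer was 100 nL into about 20 µL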
# Target sequence (Q9Y5K5 whole entry, looked up): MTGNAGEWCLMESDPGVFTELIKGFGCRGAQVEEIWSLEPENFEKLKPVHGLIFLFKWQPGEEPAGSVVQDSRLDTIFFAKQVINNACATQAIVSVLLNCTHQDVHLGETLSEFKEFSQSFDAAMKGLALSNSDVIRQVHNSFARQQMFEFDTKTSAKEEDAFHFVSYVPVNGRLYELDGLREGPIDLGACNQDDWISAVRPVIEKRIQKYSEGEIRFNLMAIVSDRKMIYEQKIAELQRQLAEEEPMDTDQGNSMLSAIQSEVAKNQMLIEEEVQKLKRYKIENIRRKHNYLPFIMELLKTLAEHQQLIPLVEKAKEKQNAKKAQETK
#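 Reagent: Ub-AMC substrate; assay system: Proteasome-associated human UCH37 deubiquitinase; controls: no-proteasome and no-compound wells; read-out: % inhibition of Ub-AMC cleavage fluorescence; timing: 30 min preincubation with enzyme, 25 min cleavage at room temperature; signal: AMC fluorescence from Ub-AMC cleavage, excitation 355 nm, emission 460 nm; buffer or medium: Tris-HCl pH 7.4 plus ovalbumin, ATP-MgCl2, DTT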
# Ecoli rRNA inh OD600: second read-out of Ecoli rRNA inh, no call of its own (marks repeat the call); OD600 change, %; measured here: OD600 growth;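 optical density of the mix in the first replicate; 0 = DMSO median and -100 = no signal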
# Ecoli rRNA inh RFP: further read-out of Ecoli rRNA inh, marked with its call; RFP signal change, %; measured here: RFP humanized mutant strains;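 first replicate; 0 = DMSO median and -100 = no signal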
# Active calls of the source: *; i = inactive; ? = inconclusive; . = no result given.
SMILES,A1 inh,T cruzi repl,Beta apoptosis,FGF22 binding,AF4-AF9 inh,Ecoli rRNA inh,Ecoli rRNA inh OD600,Ecoli rRNA inh RFP,Ecoli growth,UCH37 inh
O=C(c1ccc(F)cc1)N(Cc1ccco1)C1CCS(=O)(=O)C1 (centres undefined),0.7,2,-8,i,2.3,10,23,2.0,0.74,1.4
CCCc1ccc2oc(C(=O)NCCN3CCCC(O)C3)c(C)c2c1 (centres undefined),.,4,.,i,2.4,1,-1,2.6,0.66,1.2
Cc1ccc(C(C(=O)NC2CCCC2)N(Cc2ccccc2)C(=O)c2csnn2)o1 (centres undefined),0.0,-1,0,i,0.8,3,-17,-3.6,0.66,2.1
CCOC(=O)c1[nH]c(C)c(C(=O)OCC(=O)NCc2ccc(OC)cc2)c1C,0.6,.,-8,i,-1.8,5,3,-0.8,0.69,2.7
COc1cc(C)c(S(=O)(=O)n2ccc(C)n2)cc1C,0.3,-3,-5,.,.,.,.,.,0.72,1.4
S=C(NC1CC1)SCc1ccco1,0.8,.,-16,i,0.4,16,24,2.5,.,.
O=C(O)CSCC(=O)N1CCCCC1,-0.1,-20,-1,i,0.0,6,7,1.6,0.71,-0.3
CCOc1ccc(C)cc1S(=O)(=O)n1ccc(C)n1,0.8,-5,-10,.,.,.,.,.,0.68,0.3
CCN(CC)C(=O)COn1c(SCC(=O)N(CC)CC)nc2ccccc2c1=O,0.2,.,-8,.,.,.,.,.,0.72,1.0
COc1ccc(NC(=O)C(CCSC)NC(N)=O)cc1Cl (centres undefined),-0.3,-13,-3,i,-0.9,6,6,0.4,0.69,3.5
CCOC(=O)C1CCN(S(=O)(=O)c2ccc3[nH]c(=O)ccc3c2)CC1,-0.4,-4,2,i,-1.7,9,12,-0.2,0.78,5.4
O=c1cc(-c2ccc(O)cc2)oc2c(-c3c(O)cc(O)c4c(=O)cc(-c5ccc(O)cc5)oc34)c(O)cc(O)c12,.,.,.,i,8.1,.,.,.,0.71,7.3
O=C(NCc1nnnn1-c1ccc(F)c(F)c1)C(=O)c1c[nH]c2ccccc12,-0.6,-7,-1,i,1.3,-12,-2,0.8,0.63,4.9
CC(=O)N(Cc1ccccc1C)c1cccc(C)c1C,-0.8,6,-12,.,-0.2,-44,-58,-8.2,0.69,3.5
CCN(CC)CCCN(CC(=O)N(C)Cc1ccccc1)C(=O)c1ccc([N+](=O)[O-])cc1,-1.5,-17,23,i,-4.0,25,7,-2.3,0.68,-1.8
CCSc1nc2c([nH]1)c(=O)n(C)c(=S)n2C,.,.,.,i,-1.0,0,-2,-3.4,0.68,1.8
CCOC(=O)C1CCN(C(=O)CCNS(=O)(=O)c2ccc(C)cc2)CC1,-0.2,.,0,i,-3.2,.,.,.,0.67,5.5
CCC(=O)Nc1nc(C)c(-c2csc(Nc3ccc(C(=O)O)cc3)n2)s1,.,-7,.,i,-9.2,-1,-11,0.3,0.7,-2.9
O=C(CCCN1CCC(O)(c2ccc(Br)cc2)CC1)c1ccc(F)cc1,1.1,.,2,i,-2.5,4,-16,16,0.66,3.4
COc1ccc(CC(NC(C)=O)C(=O)N2CCN(C(=O)N(C(C)C)C(C)C)CC2)cc1 (centres undefined),1.7,-1,.,i,1.8,15,11,-3.3,0.65,4.6
O=C(Cn1c(=O)oc2cccnc21)Nc1ccccc1Oc1ccc(Cl)cc1Cl,-1.2,-6,8,.,.,.,.,.,0.65,2.3
CCOc1cccc(/C=N/NC(=O)c2cccnc2)c1O,-1.6,8,35,i,2.2,-16,13,4.0,.,.
CCOc1ccc(C(=O)N2CCCC(c3nc(-c4ccc(C)o4)no3)C2)cc1 (centres undefined),0.1,13,-1,i,0.5,-3,2,-3.0,0.67,-0.1
CC(C)(C)c1ccc(C(=O)NC(=S)NNC(=O)c2cccs2)cc1,1.1,56*,1,.,.,.,.,.,0.68,1.2
COc1ccc(NC(=O)CNS(=O)(=O)c2ccc3nc(C)sc3c2)c(OC)c1,-0.8,-4,0,.,.,.,.,.,0.68,-0.4
Cc1cc(C)c(NC(=O)CSc2nnc(SCC(=O)Nc3c(C)cc(C)cc3C)n2N)c(C)c1,0.2,-6,-5,.,.,.,.,.,0.71,4.2
CC(NS(=O)(=O)c1ccccc1)C(N)=O (centres undefined),1.0,-5,-3,.,.,.,.,.,0.67,0.5
CC(=O)N1CCc2cc(S(=O)(=O)NC(Cc3ccccc3)C(=O)O)ccc21 (centres undefined),0.6,-8,-6,i,-0.3,15,14,7.3,0.73,7.7
O=C1CCN(Cc2ccc(Br)cc2)CCN1CCO,0.6,-7,3,i,-2.3,6,12,-3.8,0.7,0.3
CC(C)(C)OC(=O)NCc1ccc(CNC(=O)c2ncn(Cc3ccccc3)c2C(=O)NCc2ccc(CNC(=O)OC(C)(C)C)cc2)cc1,-0.7,.,-1,i,1.9,7,15,-1.0,0.74,1.4
O=C(NC(=S)N1CCN(c2nc(-c3ccccc3)cs2)CC1)c1cccnc1,0.4,-11,8,.,.,.,.,.,0.7,5.1
Cc1cccc(NC(=S)NNC(=O)c2ccc3c(c2)OCO3)c1,0.4,-10,-3,.,.,.,.,.,0.7,5.2
Cn1cc(S(=O)(=O)N2CCOCC2)cc1C(=O)Nc1ccc(Cl)cc1,0.5,8,-5,i,-8.7,-5,-4,-1.7,0.72,7.7
COc1ccc(N=c2scc(C)n2CCCN2CCCC2=O)cc1,-1.0,-2,-1,i,-1.9,4,-3,0.2,0.71,2.5
CCC(CC)NC(=O)Cc1ccc(S(=O)(=O)N2CCOCC2)s1,0.2,-1,-4,.,.,.,.,.,0.7,-0.3
Cc1cc(C)nc(OC(C(=O)O)C(OCc2ccccc2)(c2ccccc2)c2ccccc2)n1 (centres undefined),-0.5,-14,0,i,0.4,-4,-6,-1.0,0.69,-0.1
Cc1ccc(CN2CCC(c3cc(-c4ccc(Cl)cc4)n[nH]3)CC2)cc1,-0.7,44,51,i,1.3,4,-3,15,0.62,5.5
COc1cc(C(=O)NCCN=C2NS(=O)(=O)c3ccccc32)cc(OC)c1OC,0.6,-17,-5,i,-3.6,-2,5,-1.8,0.68,3.7
Cc1cc(C)nc(NC(=O)C2c3ccccc3Oc3ccccc32)n1,0.9,-7,6,i,-1.6,1,-7,-3.3,0.7,2.8
Cc1cccc(-n2c(O)c(C=Nc3ccc(O)cc3)c3ccccc3c2=O)n1,-0.7,-18,5,.,.,.,.,.,0.71,-18

# Sorted by length of the SMILES (smallest number first): some entries from above
SMILES,A1 inh,T cruzi repl,Beta apoptosis,FGF22 binding,AF4-AF9 inh,Ecoli rRNA inh,Ecoli rRNA inh OD600,Ecoli rRNA inh RFP,Ecoli growth,UCH37 inh
CC(NS(=O)(=O)c1ccccc1)C(N)=O (centres undefined),1.0,-5,-3,.,.,.,.,.,0.67,0.5
CCOc1cccc(/C=N/NC(=O)c2cccnc2)c1O,-1.6,8,35,i,2.2,-16,13,4.0,.,.
Cc1cccc(NC(=S)NNC(=O)c2ccc3c(c2)OCO3)c1,0.4,-10,-3,.,.,.,.,.,0.7,5.2
Cn1cc(S(=O)(=O)N2CCOCC2)cc1C(=O)Nc1ccc(Cl)cc1,0.5,8,-5,i,-8.7,-5,-4,-1.7,0.72,7.7
Cc1cc(C)nc(OC(C(=O)O)C(OCc2ccccc2)(c2ccccc2)c2ccccc2)n1 (centres undefined),-0.5,-14,0,i,0.4,-4,-6,-1.0,0.69,-0.1
Cc1cc(C)c(NC(=O)CSc2nnc(SCC(=O)Nc3c(C)cc(C)cc3C)n2N)c(C)c1,0.2,-6,-5,.,.,.,.,.,0.71,4.2

# New compounds follow.
SMILES,A1 inh,T cruzi repl,Beta apoptosis,FGF22 binding,AF4-AF9 inh,Ecoli rRNA inh,Ecoli rRNA inh OD600,Ecoli rRNA inh RFP,Ecoli growth,UCH37 inh
CC(C)C[C@@H](CSc1ccccc1)N1CCN(CC(C)C)CCC1=O,0.3,19,-2,i,-7.0,-23*,-5.8*,-3.0*,.,3.1
CC(=O)Nc1ccc(C2=NNC(=Nc3cccc(S(=O)(=O)N(C)C)c3)SC2)cc1,0.0,2,96*,.,.,.,.,.,0.68,-0.9
CC1CN(C(=O)CCS(=O)(=O)c2ccccc2)CC(C)O1 (centres undefined),?,-9,-5,i,0.4,6,-4,-1.0,0.69,-0.5
Cc1ccc(C2(c3ccccc3)NC(=O)N(CC(=O)N(C)C3CCS(=O)(=O)C3)C2=O)cc1C (centres undefined),1.7,.,-2,i,-8.7,0,2,-0.4,0.68,0.6
CC(C)CC(=O)c1c[nH]c(C(=O)N2CCN(Cc3ccccc3)CC2)c1,0.3,0,7,i,-1.9,4,3,-2.4,0.7,4.8
CCOc1ccc(-n2c(CCc3ccccc3)n[nH]c2=S)cc1,-0.1,-5,12,i,-3.4,-30,-25,3.9,0.71,3.4
NC(=O)c1ccccc1NS(=O)(=O)c1ccc2c(c1)OCCO2,-0.5,-16,-3,.,.,.,.,.,0.7,-42
CCOc1cc(C(=O)N/N=C/c2ccoc2)cc(OCC)c1OCC,-2.2,.,-2,i,2.7,21,11,7.2,.,.
CN(CC(=O)Nc1ccc(F)cc1)C(=O)COC(=O)C1=COCCO1,-0.3,-6,-1,i,1.7,2,6,-1.1,0.65,2.6
N#Cc1ccc(NC(=O)CSc2nc3[nH]c(=O)cc(O)c3s2)cc1,-0.9,.,0,i,-3.0,9,7,6.1,0.7,4.6
O=C(Nc1cccc(Cl)c1)OC1CCCCc2cccnc21 (centres undefined),1.0,25,0,i,-1.9,-24*,-13*,-3.2*,0.67,5.8
COc1ccc(CC(NC(C)=O)C(=O)NC2CCN(C(=O)Nc3ccccc3Cl)CC2)cc1OC (centres undefined),-1.1,-14,-4,.,.,.,.,.,0.72,1.7
COc1cccc(C(=O)NC(=S)Nc2cccnc2)c1,-4.5,-15,-1,i,0.6,3,-2,0.2,0.71,1.6
Cc1cc(OCC(=O)Nn2cnnc2)c(C)cc1Br,0.9,-15,-1,.,.,.,.,.,0.71,-0.6
CCn1c(O)c(N=NC(=O)c2cccnc2)c2cc(Br)ccc21,0.7,-5,6,i,-0.3,19,13,6.5,0.7,0.9
Cc1ccc(OCCNC(=O)c2ccc3c(c2)OCO3)cc1,-0.4,8,0,i,-1.7,0,-2,1.9,0.69,-0.8
COc1nc(NC(C)C)nc(N(C#N)CN2C(=O)c3ccccc3S2(=O)=O)n1,0.9,-11,-12,i,.,-2,1,-1.7,0.67,-1.8
COc1ccc(OC)c(CNS(=O)(=O)c2cn(C)cn2)c1,0.0,-11,-6,i,-1.9,10,14,2.3,0.7,-2.0
O=C(CN1C(=O)c2ccccc2S1(=O)=O)NCc1ccccn1,0.8,-15,-3,.,.,.,.,.,0.69,1.6

# Not all compounds are listed, so the mix of outcomes need not match the whole.
